Screens (PubChem)
KCNQ2 enhance – potentiators of rat KCNQ2 potassium channel. AID 2239. B-score at 10 µM. 310,000 compounds, 0.54% hits. CHO-K1 KCNQ2, FluxOR thallium flux fluorescence; hits give high values. O88943;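 active = fluorescence ratio B-score at least 3 SD of library B-scores, with initial fluorescence B-score within 3 SD, cut at about 5.3 in these data; same plate scores as AID 2156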;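 note: B-score of peak minus minimum over baseline fluorescence ratio after K+ and Tl+ stimulus; positive B-score means potentiation of KCNQ2 with more thallium influx and brighter signal; only the inactives scoring about 0 or higher are listed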
Target sequence (O88943 whole entry, looked up): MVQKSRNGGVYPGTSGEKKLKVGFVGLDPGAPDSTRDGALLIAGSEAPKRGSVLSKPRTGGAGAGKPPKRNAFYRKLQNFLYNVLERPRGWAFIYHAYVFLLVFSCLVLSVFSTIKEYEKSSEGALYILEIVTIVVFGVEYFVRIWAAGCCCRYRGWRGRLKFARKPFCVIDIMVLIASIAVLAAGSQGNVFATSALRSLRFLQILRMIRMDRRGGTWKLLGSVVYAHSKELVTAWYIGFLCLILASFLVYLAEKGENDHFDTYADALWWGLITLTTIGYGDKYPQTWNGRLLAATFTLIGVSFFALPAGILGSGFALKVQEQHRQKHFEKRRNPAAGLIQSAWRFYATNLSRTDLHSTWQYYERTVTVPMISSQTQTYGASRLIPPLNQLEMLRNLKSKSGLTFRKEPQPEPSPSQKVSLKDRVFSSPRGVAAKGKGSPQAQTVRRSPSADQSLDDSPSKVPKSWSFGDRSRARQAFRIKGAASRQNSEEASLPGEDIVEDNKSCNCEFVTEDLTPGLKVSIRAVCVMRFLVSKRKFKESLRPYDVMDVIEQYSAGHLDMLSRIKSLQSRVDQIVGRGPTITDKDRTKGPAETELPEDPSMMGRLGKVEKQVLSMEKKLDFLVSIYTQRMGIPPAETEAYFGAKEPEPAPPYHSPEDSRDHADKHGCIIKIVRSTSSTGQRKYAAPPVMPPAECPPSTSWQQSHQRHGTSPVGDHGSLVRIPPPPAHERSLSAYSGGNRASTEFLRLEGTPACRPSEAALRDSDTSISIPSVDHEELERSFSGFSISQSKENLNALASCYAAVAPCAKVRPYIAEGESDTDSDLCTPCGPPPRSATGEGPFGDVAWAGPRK
KCNQ2 enhance baseline – further read-out of KCNQ2 enhance, marked with its call; B-score; compound at 10 µM; measured here: initial fluorescence intensity artifact check;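 brightness before thallium and not channel activity; 0 = typical well and far values either way flag optical interference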
* hit, by the source's call. Only part of the results is shown (hit frequency here may not be typical).

`OC(Cc1ccccc1)(c1ccccc1)C1CN2CCC1CC2` (centres undefined) gave KCNQ2 enhance 0.31 and KCNQ2 enhance baseline 0.98.
For CCOc1ccc2nc(N3CCC(C(=O)N4CCC5(CC4)OCCO5)CC3)sc2c1 the results were KCNQ2 enhance 0.22 and KCNQ2 enhance baseline 0.66.
For Cc1ccc(N2C(=O)NC(=O)/C(=C\C=C\c3ccco3)C2=O)cc1 the results were KCNQ2 enhance 0.88 and KCNQ2 enhance baseline -0.68.
`COc1ccc(C2=NS(=O)(=O)N(C)C(C(=O)N3CCC4(CC3)OCCO4)=C2)cc1OC` gave KCNQ2 enhance 1.4 and KCNQ2 enhance baseline -1.4.
`O=C(O)C12C3CCCC1C32c1ccccc1` (centres undefined) gave KCNQ2 enhance 1.8 and KCNQ2 enhance baseline -0.95.
`O=C(CN1CCN(Cc2cccc(Cl)c2)C1=O)N1CCC2(CC1)OCCO2` gave KCNQ2 enhance 0.44 and KCNQ2 enhance baseline -0.52.
Screening COC(=O)CN1C(=O)C2(C(C(=O)OC)=C(N)Oc3ccccc32)C2=C1CC(C)(C)CC2=O (centres undefined) returned KCNQ2 enhance 0.23 and KCNQ2 enhance baseline 2.7.
Screening NCCCC(=O)OC1N=C(c2ccccc2Cl)c2cc(Br)ccc2NC1=O (centres undefined) returned KCNQ2 enhance 0.97 and KCNQ2 enhance baseline -0.4.
`COCCNC(=O)Cn1cc(C=C2C(=O)NC(=O)NC2=O)c2ccccc21` gave KCNQ2 enhance 0.85 and KCNQ2 enhance baseline 0.51.
`COC(=O)C1=C(c2cc3ccccc3o2)C[C@@H]2CC[C@H]1N2C(=O)NCCNC(C)=O` gave KCNQ2 enhance 0.02 and KCNQ2 enhance baseline -1.6.
O=C1CC(N2CCC(n3c(=O)[nH]c4ccccc43)CC2)C(=O)N1Cc1ccccc1 (centres undefined) was read as KCNQ2 enhance 1.4 and KCNQ2 enhance baseline -0.52.
O=C1NC(=O)C(=Cc2cc([N+](=O)[O-])ccc2N2CCCCC2)C(=O)N1 was read as KCNQ2 enhance 0.77 and KCNQ2 enhance baseline -0.51.
Screening COc1ccc(F)cc1C(=O)C1CCCN(Cc2cnc(C)s2)C1 (centres undefined) returned KCNQ2 enhance 0.08 and KCNQ2 enhance baseline -0.79.
Screening CN1C2CCC1CC(OC(=O)c1ccc([N+](=O)[O-])cc1)C2 (centres undefined) returned KCNQ2 enhance 0.47 and KCNQ2 enhance baseline -1.8.
`Cc1cccc(N2CCN(CCc3ccccc3)CC2)c1C` gave KCNQ2 enhance 0.11 and KCNQ2 enhance baseline 0.2.
Screening CC(ON1CC1(C(F)(F)F)C(F)(F)F)(C(N)=O)C(N)=O (centres undefined) returned KCNQ2 enhance 0.14 and KCNQ2 enhance baseline -0.83.
Clc1ccc(OCC#CCN2CCCCCC2)cc1 was read as KCNQ2 enhance 0.22 and KCNQ2 enhance baseline -0.14.
Screening COC(=O)C1=Nc2ccccc2/C1=C\c1c(O)n(-c2ccc(OC)cc2)c(=O)[nH]c1=O returned KCNQ2 enhance 1.4 and KCNQ2 enhance baseline -0.88.
`COc1cccc(CCNCc2cccc(C(F)(F)F)c2)c1` gave KCNQ2 enhance 0.01 and KCNQ2 enhance baseline 0.05.
O=C(Nc1cccc(Cl)c1)OC1CN2CCC1CC2 (centres undefined) was read as KCNQ2 enhance 0.14 and KCNQ2 enhance baseline -0.36.
O=C(Cn1ncc2c3ccccc3n(Cc3ccccc3F)c2c1=O)N1CCC2(CC1)OCCO2 was read as KCNQ2 enhance 16* and KCNQ2 enhance baseline 1.1*.
Screening CN1CCC(OC(=O)C2c3ccccc3Oc3ccccc32)CC1 returned KCNQ2 enhance 1.1 and KCNQ2 enhance baseline -0.45.
Screening CN1CCN(C(=O)Cc2ccccc2)CC1 returned KCNQ2 enhance 0.35 and KCNQ2 enhance baseline -0.91.
Screening CC(C)C[C@H](NC(=O)[C@@H]1CCCN1C(=O)[C@@H](N)Cc1ccc(O)cc1)C(=O)NCC(N)=O returned KCNQ2 enhance 2 and KCNQ2 enhance baseline -0.25.

2 consecutive compounds from above, quoted:
O=C(Nc1cccc(Cl)c1)OC1CN2CCC1CC2 (centres undefined) was read as KCNQ2 enhance 0.14 and KCNQ2 enhance baseline -0.36.
O=C(Cn1ncc2c3ccccc3n(Cc3ccccc3F)c2c1=O)N1CCC2(CC1)OCCO2 was read as KCNQ2 enhance 16* and KCNQ2 enhance baseline 1.1*.

Three compounds out of the list, arranged by number of heavy atoms, falling:
`COc1cccc(CCNCc2cccc(C(F)(F)F)c2)c1` gave KCNQ2 enhance 0.01 and KCNQ2 enhance baseline 0.05.
O=C(Nc1cccc(Cl)c1)OC1CN2CCC1CC2 (centres undefined) was read as KCNQ2 enhance 0.14 and KCNQ2 enhance baseline -0.36.
Screening CN1CCN(C(=O)Cc2ccccc2)CC1 returned KCNQ2 enhance 0.35 and KCNQ2 enhance baseline -0.91.

Among those listed so far, these contain nitrogen in an aromatic ring:
For CCOc1ccc2nc(N3CCC(C(=O)N4CCC5(CC4)OCCO5)CC3)sc2c1 the results were KCNQ2 enhance 0.22 and KCNQ2 enhance baseline 0.66.
`COCCNC(=O)Cn1cc(C=C2C(=O)NC(=O)NC2=O)c2ccccc21` gave KCNQ2 enhance 0.85 and KCNQ2 enhance baseline 0.51.
O=C1CC(N2CCC(n3c(=O)[nH]c4ccccc43)CC2)C(=O)N1Cc1ccccc1 (centres undefined) was read as KCNQ2 enhance 1.4 and KCNQ2 enhance baseline -0.52.
Screening COc1ccc(F)cc1C(=O)C1CCCN(Cc2cnc(C)s2)C1 (centres undefined) returned KCNQ2 enhance 0.08 and KCNQ2 enhance baseline -0.79.
Screening COC(=O)C1=Nc2ccccc2/C1=C\c1c(O)n(-c2ccc(OC)cc2)c(=O)[nH]c1=O returned KCNQ2 enhance 1.4 and KCNQ2 enhance baseline -0.88.
O=C(Cn1ncc2c3ccccc3n(Cc3ccccc3F)c2c1=O)N1CCC2(CC1)OCCO2 was read as KCNQ2 enhance 16* and KCNQ2 enhance baseline 1.1*.
